# Six1-Eya2 blk = qHTS Assay for Inhibitors of the Six1/Eya2 Interaction; Homeobox protein SIX1 (Homo sapiens) + Protein phosphatase EYA2 (Homo sapiens), …; AlphaScreen GST-Six1/His-Eya2 binding, biochemical; active compounds read low; control for the full effect not named in the record; activity change, % (test concentration not listed); 360,000 tested, 0.56% active; AID 651725, 2012; in the data active = activity change below about -65%; inconclusive = about -30% to -65%; inactive = above about -30%; also: % is scaled to controls: 0 for no effect and ±100 for the full control effect
# Target sequence (O00167 whole entry, looked up): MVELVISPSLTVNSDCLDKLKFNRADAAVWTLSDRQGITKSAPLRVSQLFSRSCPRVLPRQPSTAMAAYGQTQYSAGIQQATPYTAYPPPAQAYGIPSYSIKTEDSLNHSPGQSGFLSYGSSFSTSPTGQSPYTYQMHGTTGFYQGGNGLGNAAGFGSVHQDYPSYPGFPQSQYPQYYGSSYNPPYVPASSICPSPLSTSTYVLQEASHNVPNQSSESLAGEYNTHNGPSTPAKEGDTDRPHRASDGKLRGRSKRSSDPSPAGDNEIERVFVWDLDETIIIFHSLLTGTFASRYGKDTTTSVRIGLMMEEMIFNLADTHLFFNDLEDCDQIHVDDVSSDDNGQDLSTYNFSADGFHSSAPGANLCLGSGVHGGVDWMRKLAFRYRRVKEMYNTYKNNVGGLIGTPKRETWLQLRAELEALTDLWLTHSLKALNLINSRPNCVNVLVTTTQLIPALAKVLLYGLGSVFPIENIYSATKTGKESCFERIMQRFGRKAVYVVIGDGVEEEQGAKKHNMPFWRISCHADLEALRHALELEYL
# Target sequence (Q15475 whole entry, looked up): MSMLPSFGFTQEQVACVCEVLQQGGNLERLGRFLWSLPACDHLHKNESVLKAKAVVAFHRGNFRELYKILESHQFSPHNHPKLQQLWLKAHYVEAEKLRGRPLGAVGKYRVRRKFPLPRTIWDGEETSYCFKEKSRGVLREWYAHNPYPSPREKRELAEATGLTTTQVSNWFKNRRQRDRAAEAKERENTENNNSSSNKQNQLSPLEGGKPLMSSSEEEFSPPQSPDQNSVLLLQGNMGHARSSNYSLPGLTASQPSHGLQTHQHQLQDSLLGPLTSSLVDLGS
#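 Six1/Eya2 binding was read as AlphaScreen signal after compounds were pinned into GST-Six1 plus His-tagged Eya2 (5X stock 250/500 nM) in pH 8.0 Tris/NaCl/TCEP buffer, beads added, then incubated 1 h, 37 C, dark.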
# PINK1 expr mod = A Quantitative High throughput Screen to Identify Chemical Modulators of PINK1 Expression; 410,000 tested, 0.2% active; Potency, µM (doses to about 76.6 µM), for inactives: top-dose activation (PINK1 increase), usual class: activators; PINK1 immunofluorescence, high-content cytometry, 24 h; AID 624263, 2012; active = well fitted activation curve with a large enough effect; inconclusive = small, poorly fitted or top-dose-only effect; inactive = flat fitted curve, though single readings scatter; cell line not stated here;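 also: potency is read from the fitted curve at half-maximal effect; % of control where 0% means no effect; nearly all actives have a fitted effect of over 65% in size; a mitochondrial uncoupler was the plate control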
#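 PINK1 protein, normally rapidly degraded, was detected by immunofluorescence after 24 hour compound treatment of a stable cell line. Titration data (5 concentrations) came from laser-scanning cytometry, with CCCP-treated wells as controls.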
# TRPML1 inh = qHTS for Inhibitors of the Human Mucolipin Transient Receptor Potential 1 (TRPML1) | activity change, negative = inhibition, % (concentration not given with the values) | TRPML1-inducible cells, Ca2+ dye fluorescence, FDSS; active compounds read low; inhibition of EC80 agonist-evoked calcium signal | Mucolipin-1 (Homo sapiens), Q9GZU1 | AID 624415, 2012 | 390,000 tested, 0.02% active; in the data active means activity change below about -50%; inconclusive means about -30% to -50%; inactive means above about -30%;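 also: stimulus is agonist 54-4 at its EC80 concentration; % is scaled to controls: 0 for no effect and ±100 for the full control effect; the text of the record puts the active cut at -80%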
#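 Calcium fluorescence in TRPML1-DL cells induced overnight with Tet: a 110 s read after compound pin addition, then a 110 s antagonist read after challenge with 54-4 at 4 uM final (EC80).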
# CtBP-E1A blk = qHTS Assay for Inhibitors of the CtBP/E1A Interaction. 340,000 tested, 0.49% active. activity change, % (concentration not given with the values). AlphaScreen GST-E1A/His-CtBP binding, 1536-well; active compounds read low; control for the full effect not named in the record; in the data active means activity change below about -65%; inconclusive means about -30% to -65%; inactive means above about -30%; also: % is scaled to controls: 0 for no effect and ±100 for the full control effect
#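 Homogeneous bead-based format: GST-tagged E1A captured on glutathione donor beads, His-tagged CtBP on nickel acceptor beads; compounds precede bead addition by 2 h at 37 °C.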
# TRPML1 ag = qHTS for Agonists of the Human Mucolipin Transient Receptor Potential 1 (TRPML1); Mucolipin-1 (Homo sapiens), Q9GZU1; TRPML1-expressing cells, Ca2+ dye fluorescence, FDSS; host cell line not named in the record; reference of the full effect not given here; activation, % (concentration not given with the values); 410,000 tested, 0.12% active; in the data active = activation above about 50%; inconclusive = about 30% to 50%; inactive = below about 30%; also: 0% is about no effect; the text of the record puts the active cut at 80%
#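 Calcium fluorescence on an FDSS kinetic reader gave the read-out. Tet-induced TRPML1-DL cells were plated overnight, dye-loaded (Ca8 with quencher, 45-90 min, room temperature, dark), then read 110 s after compound addition, and again 110 s after 4uM final 54-4 (EC80).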
# D2 agonist = Beta-Arrestin HTS for Positive Allosteric Modulators of the Human D2 Dopamine Receptor: Agonists | D(2) dopamine receptor (Homo sapiens), P14416 | DiscoveRx PathHunter D2 beta-arrestin, luminescence, 90 min; 100% = 57 uM dopamine signal | activation, % (concentration not given with the values) | 360,000 tested, 0.084% active | AID 624465, 2012; in the data active = activation above about 40%; inconclusive = about 15% to 40%; inactive = below about 15%; also: compound concentration not given in the record; the text of the record calls up to 30% inactive
#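 DiscoveRx PathHunter D2 beta-arrestin cells (2,100/well) attached overnight, then compound-stimulated 90 min at 37 C in HBSS/10 mM HEPES/0.1% Tween-20 buffer; beta-galactosidase complementation read by luminescence after 1 h at ambient temperature. Dopamine 57 uM final (EC100) as control.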
# * hit, by the source's call; ? = inconclusive; . = no result given; [ ] = dose if it differs, or a comment.
SMILES,Six1-Eya2 blk,PINK1 expr mod,TRPML1 inh,CtBP-E1A blk,TRPML1 ag,D2 agonist
COc1ccc(C(=O)N2CCC(O)(c3ccc(Cl)cc3)CC2)cc1OC,4,-1.0%,16,7,3.5,-3.7
CC(C)(C)OC(=O)C1=C(CO)CS[C@@H]2[C@H](NC(=O)Cc3ccccc3)C(=O)N12,0,2.4%,-1,4,-0.4,-0.4
Cc1ccc2nc(CSc3nnc(NC(=O)CC(C)C)s3)cc(=O)n2c1,.,24%,3,.,1.2,.
Fc1ccccc1CSc1nnc(-c2cnccn2)n1Cc1ccco1,-7,-3.8%,-4,6,0.1,3.1
Cc1nn(CC(O)Cn2cnc3c2c(=O)n(C)c(=O)n3C)c(C)c1Br (centres undefined),-1,-1.4%,37,2,-0.9,-1.5
O=C(Nc1ccccc1C(=O)NCCCn1ccnc1)c1ccccc1,-2,5.6%[38.3 µM],0,0,-0.1,3.2
Cc1ccc(CNC(=O)C2CCCN2C(=O)NCc2ccccc2)cc1 (centres undefined),7,-0.2%,-2,6,-0.6,-0.6
Cc1ccc(C(=O)N2CCCCC2)cc1S(=O)(=O)N1CCCC1,0,1.2%,0,6,-0.7,-3.2
COc1cc(OC)cc(C(=O)NCc2nc(-c3ccccc3)no2)c1,-1,-3.4%[38.3 µM],-10,-5,0.9,1.3
CCOC(=O)c1c(C)[nH]c(C)c1C(=O)COC(=O)C1CCCN1S(=O)(=O)c1ccccc1F (centres undefined),-3,-1.5%,-6,-13,-0.4,0.3
O=C(Nc1ccc(Br)cn1)c1cccc2c1-c1ccccc1C2=O,-2,5.0%,-9,2,2.2,-4.4
CCCOC(=O)c1c(NC(=O)C2c3ccccc3Oc3ccccc32)sc2c1CCCC2,.,0.4%,-3,.,-0.3,.
NC(=O)COC(=O)c1ccccc1SCC(=O)NC1CCCCCC1,-4,12%,-6,-1,0.3,3.0
COc1cc2cc(C(N)=O)c(N)nc2cc1OC,-24,0.0%,-10,-16,-0.5,-4.5
O=C(N1CCc2[nH]c3ccccc3c2C1)C(F)(F)F,-4,-2.9%,2,-8,1.7,-0.2
Cc1ccc2c(C)c(C(=O)NCc3ccc(S(N)(=O)=O)cc3)oc2c1,-4,9.1%,-10,.,-1.0,1.2
O=c1c([N+](=O)[O-])c(N2CCOCC2)c2ccccc2n1Cc1ccccc1,-12,3.4%,-8,6,1.5,-1.9
COc1ccc(NC(=O)c2cc3c(Cl)nc4ccccc4c3s2)c(OC)c1,3,9.9%,-5,-10,0.7,2.3
CCOC(=O)c1cnc2c(-c3ccccc3)cnn2c1C,6,2.4%,-2,12,0.0,-0.5
CCC(C)n1cnc2c(c1=O)c1nc3ccccc3nc1n2Cc1ccccc1OC (centres undefined),3,2.3%,27,4,0.7,-2.3
COc1cc(/C(C)=N\NC(N)=S)cc(OC)c1OC,1,2.7%,14,-10,0.6,4.6
COCC1CCCCN1C(=O)c1cc(COc2ccc(C)c(C)c2)on1 (centres undefined),3,0.3%,11,0,-0.6,-2.7
CC1(C(=O)O)CCCN1C(=O)c1ccco1 (centres undefined),1,0.6%,-9,-1,0.0,-2.4
O=C(CCCCn1c(=O)c2ccccc2n(Cc2ccccc2Cl)c1=O)NCCc1ccccc1,.,0.2%,-17,.,-0.6,.
O=C(Cc1ccccc1)NC(NNc1ccccc1)(C(F)(F)F)C(F)(F)F,3,1.7%,7,3,1.9,3.8

# Sorted by length of the SMILES (ascending): some entries from above
SMILES,Six1-Eya2 blk,PINK1 expr mod,TRPML1 inh,CtBP-E1A blk,TRPML1 ag,D2 agonist
CCOC(=O)c1cnc2c(-c3ccccc3)cnn2c1C,6,2.4%,-2,12,0.0,-0.5
CCC(C)n1cnc2c(c1=O)c1nc3ccccc3nc1n2Cc1ccccc1OC (centres undefined),3,2.3%,27,4,0.7,-2.3
CC(C)(C)OC(=O)C1=C(CO)CS[C@@H]2[C@H](NC(=O)Cc3ccccc3)C(=O)N12,0,2.4%,-1,4,-0.4,-0.4

# Reformatted: results already given.
structure: Cc1nn(CC(O)Cn2cnc3c2c(=O)n(C)c(=O)n3C)c(C)c1Br (centres undefined)
  Six1-Eya2 blk = -1	PINK1 expr mod = -1.4%	TRPML1 inh = 37	CtBP-E1A blk = 2	TRPML1 ag = -0.9	D2 agonist = -1.5

structure: O=C(Nc1ccccc1C(=O)NCCCn1ccnc1)c1ccccc1
  Six1-Eya2 blk = -2	PINK1 expr mod = 5.6%[38.3 µM]	TRPML1 inh = 0	CtBP-E1A blk = 0	TRPML1 ag = -0.1	D2 agonist = 3.2

structure: Cc1ccc(CNC(=O)C2CCCN2C(=O)NCc2ccccc2)cc1 (centres undefined)
  Six1-Eya2 blk = 7	PINK1 expr mod = -0.2%	TRPML1 inh = -2	CtBP-E1A blk = 6	TRPML1 ag = -0.6	D2 agonist = -0.6

structure: Cc1ccc(C(=O)N2CCCCC2)cc1S(=O)(=O)N1CCCC1
  Six1-Eya2 blk = 0	PINK1 expr mod = 1.2%	TRPML1 inh = 0	CtBP-E1A blk = 6	TRPML1 ag = -0.7	D2 agonist = -3.2

# Additional records follow.
SMILES,Six1-Eya2 blk,PINK1 expr mod,TRPML1 inh,CtBP-E1A blk,TRPML1 ag,D2 agonist
O=C(NCC1CCCO1)C12CN(Cc3ccccc3)CC1C(c1cccc([N+](=O)[O-])c1)=NO2 (centres undefined),0,-0.8%,27,-4,-0.4,-3.5
CCOc1ncccc1C(=O)Nc1cc(S(=O)(=O)N2CCOCC2)ccc1OCC(F)(F)F,-10,6.0%,45,0,2.7,2.8
COc1cc(C(=O)NCc2nc(-c3ccc(Cl)cc3)no2)cc(OC)c1OC,.,-0.1%,-9,.,-1.1,.
O=[N+]([O-])c1cccc(C2NCC(c3ccccc3Cl)c3c2[nH]c2ccccc32)c1 (centres undefined),-27,18%,28,-20,2.2,-8.3
CCOc1ccc(C2=C(C=Nc3c(C)n(C)n(-c4ccccc4)c3=O)C(c3ccc(F)cc3)c3ccccc3O2)cc1 (centres undefined),-16,-0.4%,9,-9,-1.0,-4.1
CCCc1ccc2oc(C(=O)N3CCN(CCC(N)=O)CC3)c(C)c2c1,-3,1.2%,-7,2,-0.3,-0.9
COc1ccc(CCN2CC(C(=O)NCCN3CCCC3=O)CCC2=O)cc1 (centres undefined),6,0.9%,8,18,-0.6,-5.1
COC(=O)c1ccc(NC(=O)CC2C(=O)N(c3ccccc3)C(=O)N2C2CCCC2)cc1 (centres undefined),.,0.6%,13,.,-0.3,.
CCN(CC)C(=O)Cn1cc(C(=O)C(=O)NCCc2ccccc2)c2ccccc21,0,-0.7%,-3,-2,-0.6,-2.0
Cc1cccc(NCc2nc3ccccc3n2C)c1,-6,3.7%[38.3 µM],-9,3,0.2,-1.3
Cc1cccc(C)c1NC(=O)CS(=O)CC(=O)NCC1OCCc2ccccc21 (centres undefined),4,-0.6%,-5,-19,1.0,2.4
Cn1nnnc1SCC(=O)Nc1ccccc1Cl,3,-0.7%,-14,-3,-0.5,-1.8
Oc1ccc(-c2csc(Nc3ncccn3)n2)cc1O,-14,1.2%,-7,?,-0.5,11
Cc1nc2c(C)cccc2c2c1CCS2,10,3.1%,-13,-17,0.4,-3.1
COc1ccc(CNS(=O)(=O)c2ccc(-c3cc(C)no3)cc2)cc1,1,3.6%,-6,-14,-0.7,-2.9
CCn1cc(C(=O)N2CCN(c3cccc(C)c3)C(C)C2)c(=O)c2cc(S(=O)(=O)N3CCOCC3)ccc21 (centres undefined),.,1.8%,2,.,-0.6,.
CCOc1cc2[nH]c(=O)n(CCCCCC(=O)NC3CCCC3)c(=O)c2cc1OCC,-1,-1.7%,6,-7,1.2,-1.7
O=C(Nc1cc(S(=O)(=O)N2CCOCC2)ccc1OCC(F)(F)F)c1ccc(N2CCCC2=O)cc1,1,0.4%,5,-1,-0.3,-2.9
COc1ccc(C(=O)N(C)CC2CCN(CCc3cccc(C(F)(F)F)c3)CC2)cc1C,-4,2.5%,0,7,1.1,-0.6
Cc1cccc(C(CC(=O)N2CCCCC2)c2ccccc2)c1O (centres undefined),2,1.6%,-9,2,1.4,6.3
COc1ccc(NC(=O)COC(=O)[C@@H]2CCCN2C(=O)c2cccs2)cc1,0,2.3%,-13,-1,0.4,-3.0
COc1ccc(-c2nnn(-c3ccc(Cl)cc3Cl)c2N)cc1,2,1.8%,13,4,3.6,-1.7
COc1ccc(CCN(C)c2ccc(S(=O)(=O)N3CCCC3)cn2)cc1OC,3,0.7%,12,-6,2.3,0.6
COc1cc(NC(=O)CN2CCN(c3ccc(F)cc3)CC2)cc(OC)c1,.,-0.9%,-13,.,0.8,.
CC(=N/O)/C(=N\O)c1ccc(C)o1,4,1.6%,4,-2,0.2,-2.0
SMILES,Six1-Eya2 blk,PINK1 expr mod,TRPML1 inh,CtBP-E1A blk,TRPML1 ag,D2 agonist
CC(NCc1ccc2c(c1)OCO2)c1ccccc1 (centres undefined),-8,-0.6%,-2,0,-0.1,-3.7
COc1ccc(NC(C)=O)c2nc(C)c(C)nc12,-1,1.3%[38.3 µM],-2,-4,-0.6,-3.7
COc1ccc(-c2csc(C)n2)cc1Br,0,1.4%,0,12,0.1,3.6
O=Cc1ccccc1Oc1ccccc1,2,4.3%,15,2,-0.7,1.4
Cc1ncc(CN2CCC(CO)(CCOc3ccccc3)CC2)s1,-1,0.2%,.,-4,.,-6.6
O=C(O)C1C2C=CC(O2)C1C(=O)NCCc1cccc(Cl)c1 (centres undefined),0,-0.4%,-8,15,0.6,1.5
COc1ccc(CCNC(=O)[C@@H](NC(=O)c2ccccc2F)C(C)C)cc1OC,13,2.5%,-10,-4,0.3,2.2
CN1CCN(C(=S)NC(=O)c2ccc(S(=O)(=O)N3CCOCC3)cc2)CC1,-7,0.0%,30,.,-0.2,-5.4
O=C(CCCN1C(=O)c2ccccc2C1=O)Oc1ccc(Cl)cc1,-28,1.1%,-4,12,0.5,-3.3
O=C(O)c1ccccc1C(=O)NNc1ccc(Cl)cc1Cl,5,1.0%,14,.,0.7,-12
CN(C)c1ccc(C(=O)OCC(=O)NCC2CCCO2)cc1 (centres undefined),4,.,-2,4,-0.1,-1.3
O=C(CN(Cc1ccco1)C(=O)c1ccc(F)cc1F)Nc1ccccc1C(F)(F)F,1,2.2%,-5,4,-0.2,-1.2
COc1cc(CCC(=O)OCc2ccccc2C#N)cc(OC)c1OC,-1,-0.5%,-27,0,0.5,2.0
N#C/C(C(=S)Nc1ccccc1)=C1/NN=C(N2CCOCC2)N1c1ccccc1,7,-0.5%,2,2,0.4,-2.3
CC1(c2ccccc2)NC(=O)N(CC(=O)NCc2ccc3c(c2)OCO3)C1=O (centres undefined),2,2.4%,36,9,-0.4,4.6
O=C(Nc1ccc(Oc2ccccc2)cc1)C1CCN(c2ncccn2)CC1,0,-4.0%[38.3 µM],-8,4,-0.7,-0.8

# High-throughput results (PubChem BioAssay)
